Ba CapD inh: blocks the Bacillus anthracis CapD enzyme | purified CapD enzyme, fluorescence intensity read-out; stronger effect = lower value; some hits fall short of the stated cut | z-score (concentration not given with the values) | 0.23% of 140,000 active;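 active = z-score under -4 in either of two replicates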;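 note: stock transfer was 100 nL into about 40 µL; score is relative to mean and spread of the plate; one replicate is shown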
AID504770: growth inhibitors of E. coli YBA685 in a screen for V. cholerae RctB (chromosome II replication) inhibitors. E. coli YBA685 rctB-dependent plasmid, OD600 growth, 3 h; stronger effect = lower value. z-score (concentration not given with the values). 0.27% of 130,000 active. AID 504770;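 active = z-score under -2 on both plates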;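 note: wells of about 30 µL received 100 nL stock; score is relative to mean and SD of the test wells; the first replicate is given; strong numbers were not always called active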
The depositor's hits bear a star; i = inactive; nt = no result given; & = joins results of further samples.

structure | Ba CapD inh | AID504770
O=C(NC1CCCCC1)C(c1cccs1)N(Cc1ccco1)C(=O)C1COc2ccccc2O1 (stereo not given) | nt | 0.05
O=P(/C(=N/O)Sc1ccccc1)(N1CCOCC1)N1CCOCC1 | -0.05 | 1.6
COc1ccc(Nc2nc(NC(=O)Nc3ccc(Cl)cc3)n[nH]2)cc1 | 0.36 | -0.1
CCOC(=O)/C=C1\SCC(=O)N1C(C)C(=O)Nc1ccc2c(c1)OCCO2 (stereo not given) | nt | -0.3
CCn1c2ccccc2c2cc(NS(C)(=O)=O)ccc21 | 64 | 2
CCN(CC)C(=O)C12CC3CCC(CC(C3)C1)C2 | -0.29 | 1.4
O=C(CCN1C(=O)C2CC=CCC2C1=O)OCn1nnc2ccccc2c1=O (stereo not given) | nt | -2.1
Cc1ccc(Nc2cc(C(=O)NCc3ccco3)c3ccccc3n2)c(C)c1 | 0.91 | 0.4
Cc1ccc(C2CC(=O)c3cnc(N4CCOCC4)nc3C2)cc1 (stereo not given) | -0.51 | 1.6
O=C(NC1CCCC1)C(c1ccncc1)N(Cc1ccco1)C(=O)Cn1nnc(-c2ccc(Cl)cc2)n1 (stereo not given) | nt | -0.5
CCc1ccc(NC(=O)c2ccc(NC(=O)C3CCCO3)cc2)cc1 (stereo not given) | 0.22 | -0.75
CCN(CC)CC(=O)Nc1cc(C)nn1-c1ccccc1 | 0.07 | 0.6
CC1CCN(C(=O)COc2ccc(F)cc2)CC1 | nt | 0.7
O=C1C(c2ccnc3ccccc23)=C(O)c2ccccc21 | nt | 0.7
COc1ccc(Cl)cc1C(=O)NC1CCCC1 | nt | -0.6
O=C(CCN1C(=O)c2ccccc2S1(=O)=O)NCc1ccccc1 | nt | 1.4
C=CCNc1ncnc2sc3c(c12)CCCC3 | 0.84 | 0.25
CC(=O)N(c1ccc(Cl)cc1)C1C=CS(=O)(=O)C1 (stereo not given) | -0.61 | -2.5*
CC(CO)NC(=O)c1cc2ccccc2oc1=O (stereo not given) | i | -1.2
CCCCCCCCCCCCCCCCCC(=O)OC(CC(=O)O)C[N+](C)(C)C (stereo not given) | -0.96 | nt
CCCc1cc(=O)oc2c1c(C)nn2-c1cccc(Cl)c1 | 0.005 | nt
CCC(C)NC(=O)c1ccc2c(c1)ncn2-c1cc(C)cc(C)c1 (stereo not given) | 0.34 | -1
O=C(CCC(=O)N1CCN(c2cccc3[nH]ccc23)CC1)c1ccc(F)cc1 | 0.51 | nt
NS(=O)(=O)c1ccc(CCNC(=O)c2ccc3c(c2)[nH]c(=S)n2c4ccccc4nc32)cc1 | 5.5 | nt
CCC1CCCCN1C(=O)Cn1c(=O)c2ccccc2n(CC)c1=O (stereo not given) | 3.2 | nt
COc1cccc(C(=O)Nc2cccnc2)c1 | 0.18 | 0.5
Cc1ccc(S(=O)(=O)CCCS(=O)(=O)c2ccc(C)cc2)cc1 | -0.19 | nt
Cn1c(C(=O)NCc2ccco2)cc2c(=O)[nH]c3ccccc3c21 | 0.78 | -0.4
CC1CCN(S(=O)(=O)c2ccc3c(c2)OCC(=O)N3)CC1 | 0.77 | 0
C=CCc1c(C)nc(C)nc1NCCO | -0.46 | -0.35
Cc1ccc(-c2nn(C)c(=O)c3ccccc23)cc1CN1CCCCC1 | -0.3 | -0.05
Cn1cc(S(=O)(=O)N2CCCC2)cc1C(=O)NCc1ccccc1 | -0.71 | 1.9
CCCCN(Cc1ccccc1)c1ncnc2nc[nH]c12 | nt | 2
C=CCOc1ccc2c(C)cc(=O)oc2c1 | 64 | 0.3
Nc1nc(-c2ccccc2)c(N=Nc2cccnc2)s1 | nt | 1.1
C=CCn1c(O)c(CN2CCOCC2)c(C)c(C#N)c1=O | nt | -1
CN1CCN(Cc2ccnc(Cl)c2)CC1 | -0.46 | nt
CCOC(=O)c1c(-n2cnnn2)sc(C)c1C | nt | 0.2
O=C(C(Cc1ccccc1)N1C(=O)C2C3c4ccccc4C(c4ccccc43)C2C1=O)N1CCOCC1 (stereo not given) | 0.53 | nt
CC(C)(C)CC(=O)NCc1ccccn1 | 0.94 | -0.8
COc1ccc(-n2nc(C(=O)Nc3ccc4c(c3)OCCO4)c3c4ccccc4n(C)c3c2=O)cc1 | 0.24 | 0.65
Cc1ccc(C(=O)N2CCC(C(=O)O)CC2)cc1 | nt | 0.85
CCN1C/C(=C/c2cc(C)n(C3CC3)c2C)C(=O)/C(=C\c2cc(C)n(C3CC3)c2C)C1 | nt | 1.1
Oc1ccc2nnc3c(Br)cnn3c2c1 | -3.1 | -1.1
COC(=O)c1cc(S(=O)(=O)N(Cc2ccc(OC)cc2)Cc2cccn2C)oc1C | -0.045 | -0.6
COc1cc(C2NC(=O)NC(C)=C2C(=O)OCc2ccc3c(c2)OCO3)ccc1OCc1ccccc1 (stereo not given) | -0.84 | nt
C=CCNc1nc(SCc2ccc(C)cc2)nc2c1sc1ccccc12 | 3.6 | nt
COc1ccc2ccccc2c1C=NNC(=O)c1ccccc1NC(=O)c1cccs1 | 1.4 | nt
N#C/C(=C\c1cccs1)c1nc2ccccc2[nH]1 | -1.9 | nt
O=C(CCc1nnc2n(Cc3ccccc3)c(=O)c3ccccc3n12)N1CCN(C(=O)c2ccco2)CC1 | 0.95 | -0.4
O=C(Nc1ccccn1)c1cccn(Cc2ccc(Cl)c(Cl)c2)c1=O | 3.2 | nt
CS(=O)(=O)c1cnc(-c2ccc(C(F)(F)F)nc2)nc1-c1ccc(Cl)cc1 | -0.35 | nt
O=C1C2C3C=CC(C3)C2C(=O)N1Nc1ccccc1 (stereo not given) | nt | 0.3
Cc1ccc(S(=O)(=O)NCC(O)c2ccccc2)cc1 (stereo not given) | -0.61 | -1.2
O=[N+]([O-])c1cc(C(F)(F)F)ccc1Oc1ccc(F)cc1F | 0.58 | nt
Cc1csc(=O)n1CC(=O)OCC(=O)NCc1cccs1 | nt | -0.35
O=C1CC(c2ccco2)CC2=C1C(c1ccco1)N(C(=O)c1ccccc1)c1ccccc1N2 (stereo not given) | -0.25 | -0.4
CC(=O)OC(OC(C)=O)C12C=CC(O1)C1C(=O)N(c3cccc([N+](=O)[O-])c3)C(=O)C12 (stereo not given) | -0.32 | nt
C1=CC2CCC(C1)N2CCN1C2C=CCC1CC2 | -0.22 | -0.7
CNC(=O)CSc1nc2ccccc2n1-c1ccccc1 | nt | -0.25

7 entries from above, sorted by count of non-hydrogen atoms, low to high:
structure | Ba CapD inh | AID504770
N#C/C(=C\c1cccs1)c1nc2ccccc2[nH]1 | -1.9 | nt
O=C1C2C3C=CC(C3)C2C(=O)N1Nc1ccccc1 (stereo not given) | nt | 0.3
Cc1ccc(S(=O)(=O)NCC(O)c2ccccc2)cc1 (stereo not given) | -0.61 | -1.2
O=[N+]([O-])c1cc(C(F)(F)F)ccc1Oc1ccc(F)cc1F | 0.58 | nt
C=CCNc1nc(SCc2ccc(C)cc2)nc2c1sc1ccccc12 | 3.6 | nt
CS(=O)(=O)c1cnc(-c2ccc(C(F)(F)F)nc2)nc1-c1ccc(Cl)cc1 | -0.35 | nt
CC(=O)OC(OC(C)=O)C12C=CC(O1)C1C(=O)N(c3cccc([N+](=O)[O-])c3)C(=O)C12 (stereo not given) | -0.32 | nt

Further compounds follow.
structure | Ba CapD inh | AID504770
COc1cccc(C(=O)N2c3ccccc3C(Nc3ccccc3)CC2C)c1 (stereo not given) | -0.59 | -0.3
O=[N+]([O-])/C=C/c1cccc2ccccc12 | -0.75 | nt
COc1ccc(C2=NN(C(=O)CCC(=O)O)C(c3ccc(Br)cc3)C2)cc1 (stereo not given) | 8.6 | nt
Cc1cc(N)c(O)cc1C | nt | -1.1
CCOc1ccc(C(=O)N[C@H](C(=O)NC2CCCCC2)C(C)C)cc1 | nt | 2
CN(C(=O)COC(=O)c1ccc(S(=O)(=O)N(C)C)cc1)c1ccccc1 | nt | 0.85
CN(CC(O)COc1ccc(Br)cc1)C1CCCCC1 (stereo not given) | -0.2 | -0.4
c1ccn2cc(CSC3=NCCS3)nc2c1 | i | -0.3
O=C(COC(=O)C(Cc1c[nH]c2ccccc12)NC(=O)c1ccc(Cl)cc1)c1ccccc1 (stereo not given) | 0.69 | nt
O=C(Nc1ccc(F)c(F)c1)c1cc(S(=O)(=O)NCc2ccc(F)cc2)ccc1F | 57 | 0.25
CCN(Cc1ccccc1)C(c1ccccn1)c1nnnn1C(C)(C)CC (stereo not given) | nt | -0.35
O=C(/C=C/c1ccccc1)Nc1ccc(S(=O)(=O)Nc2nccs2)cc1 | -0.18 | -0.85
O=C(O)CCC(=O)NCc1ccccn1 | nt | 0.1
CC(=O)c1cccc(N2C(=O)/C(=C/c3ccc([N+](=O)[O-])cc3)C=C2c2ccccc2)c1 | -0.85 | nt
O=C(Nc1ccccc1)OCN1C(=O)c2ccccc2C1=O | -1 | 2.2
Cc1cc(C(=O)N2CCCc3ccccc32)on1 | -0.27 | -0.1
COc1ccc(OC)c(/C(C)=N/N=C(N)N)c1 | nt | -0.95
Cc1ccc(S(=O)(=O)NC(=O)NC2Cc3ccccc3C2)cc1 | 0 | nt
Cc1cccc2c1NC1(CCCC1)CC2C (stereo not given) | 0.21 | 0
CC1CCC(C(C)C)C(OC(=O)CN2C(=O)c3ccccc3C2=O)C1 (stereo not given) | -1.2 | 0.75

Molecules from the list above that contain bromine (3):
structure | Ba CapD inh | AID504770
Oc1ccc2nnc3c(Br)cnn3c2c1 | -3.1 | -1.1
COc1ccc(C2=NN(C(=O)CCC(=O)O)C(c3ccc(Br)cc3)C2)cc1 (stereo not given) | 8.6 | nt
CN(CC(O)COc1ccc(Br)cc1)C1CCCCC1 (stereo not given) | -0.2 | -0.4

Further structures.
structure | Ba CapD inh | AID504770
CCOC(=O)c1c[nH]n2c(=O)c3c(nc12)CCCC3 | -0.41 | -0.55
Cc1cc2ncn(S(=O)(=O)c3ccc(S(N)(=O)=O)cc3)c2cc1C | nt | -0.5
CC(C)(C)c1ccc(Cn2c(=N)n(CCO)c3ccccc32)cc1 | 0.23 | -0.2
Cc1cc(C)nc(N2CCC(C(=O)NCC3CCCO3)CC2)n1 (stereo not given) | 2.3 | nt
COc1ccc(CCNC(=O)Cc2c(SC)c3ccccc3n2Cc2ccccc2)cc1OC | 0.8 | 0.65
COc1cc(/C=N/c2nccs2)ccc1O | -0.95 | -0.55
CCOC(=O)C(C(C)C)C(N)Cc1ccc(F)cc1 (stereo not given) | 0.78 | 0.2
CCN1CCN(C(=O)c2cn(CC)c(=O)c3cc(OC)c(OC)cc23)CC1 | 5.3 | 0.15
CC1(C)C(=O)Nc2ccccc2N1C(=O)COc1ncnc2ccccc12 | nt | -0.35
CC1CCN(CN2C(=S)SC3=NC(=O)CCCN32)CC1 | -1.7 | -1.4
CC(NC(=O)C1CCCN(c2nnc(-n3cccc3)s2)C1)c1ccc2c(c1)OCCO2 (stereo not given) | 0.17 | -0.4
COC(=O)C1=C(C)NC(C)=C(C(=O)OC(C)C)C1c1cccc2nonc12 (stereo not given) | -0.29 | nt
COC(=O)Nc1nc2ccc(Sc3ccccc3)cc2[nH]1 | -0.79&-0.22 | 0.5
C=CCn1c(SCC(N)=O)nnc1-c1ccccc1O | nt | 0.15
Cc1nc2c(C(=O)NCC3CCCO3)cnn2c(C)c1Cc1ccc(F)cc1 (stereo not given) | 68 | -0.2
CCCCCC1CCC(c2ccc3[nH]cc(C(=O)OCC)c(=O)c3c2)CC1 (stereo not given) | 0.005 | nt
CCOC(=O)c1ccccc1NC(=O)c1sc(NC(=O)COc2ccccc2C)c(C(=O)OCC)c1C | -0.46 | nt
CCN(CC)c1cc(=O)n2c(n1)SCCC2 | 0.65 | -0.1
COc1ccc(N2C(C(C)=O)=NN(c3ccc(Cl)cc3)C2c2ccc(OCc3ccc(Cl)cc3)c(OC)c2)cc1 (stereo not given) | -0.14 | nt
CN1C(C(=O)N2CCCCC2)=CC(c2cccs2)=NS1(=O)=O | 7.7 | -0.15
C=C1N(c2ccccc2)C(=O)OC1(C)CC (stereo not given) | 1.2 | -0.75
Cc1cc(C)cc(N=Cc2cc(Br)ccc2O)c1 | -0.43 | nt
O=C(COC(=O)c1ccc(Br)o1)c1ccc(Cl)c(Cl)c1 | -0.54 | 2.2
CCN(CC)C(=O)Oc1ccc(Br)cc1C(=O)Nc1cc(Cl)cc(Cl)c1 | -1.2 | 0.55
O=[N+]([O-])c1cc(C(F)(F)F)cc([N+](=O)[O-])c1Sc1ccc(Cl)cc1 | -0.11 | nt
OC(CSc1nc2ccccc2[nH]1)c1ccccc1 (stereo not given) | -0.32 | 0.9
COC(=O)c1cc(NC(=O)c2c(C)noc2C)ccc1N1CCOCC1 | 0.31 | nt
O=C(Sc1cccs1)C1CC2C=CC1CC2 (stereo not given) | -0.17 | -1
CC(C)c1ccc(-n2c(-c3ccco3)nc3c(cnn3-c3ccc(Cl)cc3)c2=O)cc1 | 0.39 | 0.5
FC(F)(F)c1cc(Oc2ncnc3c2oc2ccccc23)cc(C(F)(F)F)c1 | nt | 0.95
Cn1nc(-c2ccccc2F)c2cc(C(=O)NCc3ccc(F)cc3)sc21 | -0.28 | -0.2
O=C(COc1ccc(Cl)cc1)N1CCCC1 | 0.085 | 1.8
C/C(Nc1nc(-c2cc(C)n(Cc3ccccc3Cl)c2C)cs1)=C(/C#N)C(N)=O | nt | -0.15
CCc1ccc(S(=O)(=O)Nc2cc3c(C(=O)OC)c(C(C)(C)C)oc3c3ccccc23)cc1 | 0.73 | nt
CN1CCN(C(=O)c2ccc3c(c2)N(Cc2ccccc2)CCS3)CC1 | 25 | 1.5
O=S(=O)(N1CCC(c2nc3ccccc3s2)CC1)C(F)(F)F | -0.13 | nt
Cc1ccnc2ccc(SC(F)(F)F)cc12 | -0.14 | -0.85
CN1CCC(N(C)C(=O)c2cc(-c3ccccc3Cl)nc3ccccc23)CC1 | 0.19 | 1
CCn1cnc(C(=O)NC)c1C(=O)NC | -0.33 | -1
COc1cccc(C(=O)Nc2sc3c(c2C(N)=O)CCN(C(C)=O)C3)c1OC | nt | 0.95

Screens (PubChem)
